Anaer choline gr: inhibitors of anaerobic choline-dependent gram-negative bacterial growth; Gram-negative bacterium anaerobic choline minimal medium, absorbance growth; active compounds read low; many inactives read as strong as hits in the columns shown; calls only; 55,000 tested, 0.2% active;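 active = growth z-score on choline under -2 at 7 or 20 h with little or no fall on glycerol, limits in tiers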;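 also: stock transfer was 300 nL into about 50 µL; the organism is E. coli; final concentration not given here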
Anaer choline gr early: second read-out of Anaer choline gr, no call of its own (marks repeat the call); z-score; measured here: choline growth z-score, timepoint 1;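 score of optical density at 7 h as mean of two plates; lower means less growth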
* marks the source's active call; other numbers are inactive results; i = inactive; + = active, no number; & = joins results of further samples; ! = not confirmed by another sample. Some of the compounds tested (hit frequency here may not be typical).

SMILES | Anaer choline gr | Anaer choline gr early
Cc1csc(-c2cc(S(=O)(=O)N3CCCC(C)C3)cn2CC(=O)N2CCCCC2)n1 (stereo unspecified) | i | -0.91
O=C(O)c1cc(N2CCN(c3ccc(F)cc3)CC2)nc2ccc(NS(=O)(=O)c3ccc(F)cc3)cc12 | i | -1.73
O=S(=O)(Cc1ccc(Cl)cc1)c1nc2ccccc2nc1N1CCc2ccccc2C1 | i | 0.36
Cc1oc(C2CCN(C(=O)C3CCCO3)CC2)nc1C(=O)N1CCCC1 (stereo unspecified) | i | 0.37
O=C(C1CCN(c2ncnc3c2sc2ncccc23)CC1)N1CCN(c2ccccn2)CC1 | i | 0.21
COCc1nnc(NC(=O)COc2cccc(-c3nc(-c4ccc(OC)cc4)no3)c2)s1 | i | -0.23
c1sc2c(c1CN1CCOCC1)CCCC2 | i | -0.76
Cc1cc(S(=O)(=O)C(CNS(C)(=O)=O)c2cccnc2)ccc1F (stereo unspecified) | i | -1.02
COC(=O)c1cc(C)nc2c1c(=O)n(Cc1ccncc1)c(=O)n2-c1ccccc1 | i | -0.48
Cn1c(CCNC(=O)C2CCCC2)nc2cc(NC(=O)c3cccnc3)ccc21 | i | 0.55
O=C(CN1CCCN(Cc2ccc(F)cc2)S1(=O)=O)Nc1ccc(Br)cc1 | i | 0.05
COc1ccc(C(=O)c2c(N)c(C(=O)Nc3cccc(F)c3)c3ccccn23)cc1 | i | -0.02
CCc1nc(CN2C(=O)COc3ccc(S(=O)(=O)N4CCCCC4)cc32)no1 | i | -2.06
CCc1ccc(-c2cc3n(n2)CC(C)(C(=O)NC2CCCCC2)N(C2CCCC2)C3=O)cc1 (stereo unspecified) | i | -2.13
CCCCCCNc1cc(C)nc2c(-c3ccc(F)cc3)cnn12 | i | 0.13
O=C(CSc1ncnc2nc(N3CCCCC3)sc12)NC1CCCC1 | i | 0.25
COc1ccccc1N1CCN(C(=O)CSc2nc(-c3ccc(F)cc3)cc(C(F)(F)F)n2)CC1 | i | 0.88
Cc1ccc2nc(C(=O)Nc3ccc(Cl)cc3)cc(N3CCCCC3)c2c1 | i | -0.92
CCCS(=O)(=O)N1CCCN(C2=NS(=O)(=O)C(c3ccccc3)=C2C)CC1 | i | 0.55
CCCCN(CC)CCN1C(=O)c2cc3occc3n2CC1(C)C(=O)NC1CCC(C)CC1 (stereo unspecified) | i | 0.15

Nothing new here: 14 of the compounds above.
SMILES | Anaer choline gr | Anaer choline gr early
c1sc2c(c1CN1CCOCC1)CCCC2 | i | -0.76
Cc1cc(S(=O)(=O)C(CNS(C)(=O)=O)c2cccnc2)ccc1F (stereo unspecified) | i | -1.02
COC(=O)c1cc(C)nc2c1c(=O)n(Cc1ccncc1)c(=O)n2-c1ccccc1 | i | -0.48
Cn1c(CCNC(=O)C2CCCC2)nc2cc(NC(=O)c3cccnc3)ccc21 | i | 0.55
O=C(CN1CCCN(Cc2ccc(F)cc2)S1(=O)=O)Nc1ccc(Br)cc1 | i | 0.05
COc1ccc(C(=O)c2c(N)c(C(=O)Nc3cccc(F)c3)c3ccccn23)cc1 | i | -0.02
CCc1nc(CN2C(=O)COc3ccc(S(=O)(=O)N4CCCCC4)cc32)no1 | i | -2.06
CCc1ccc(-c2cc3n(n2)CC(C)(C(=O)NC2CCCCC2)N(C2CCCC2)C3=O)cc1 (stereo unspecified) | i | -2.13
CCCCCCNc1cc(C)nc2c(-c3ccc(F)cc3)cnn12 | i | 0.13
O=C(CSc1ncnc2nc(N3CCCCC3)sc12)NC1CCCC1 | i | 0.25
COc1ccccc1N1CCN(C(=O)CSc2nc(-c3ccc(F)cc3)cc(C(F)(F)F)n2)CC1 | i | 0.88
Cc1ccc2nc(C(=O)Nc3ccc(Cl)cc3)cc(N3CCCCC3)c2c1 | i | -0.92
CCCS(=O)(=O)N1CCCN(C2=NS(=O)(=O)C(c3ccccc3)=C2C)CC1 | i | 0.55
CCCCN(CC)CCN1C(=O)c2cc3occc3n2CC1(C)C(=O)NC1CCC(C)CC1 (stereo unspecified) | i | 0.15

New compounds follow:
SMILES | Anaer choline gr | Anaer choline gr early
c1cncc(CNc2nc(-c3ccncc3)nc3c2CCC3)c1 | i | 1.36
O=S(=O)(c1cc(-c2nc(-c3ccc(Cl)cc3)no2)cs1)N1CCOCC1 | i | 0.7
O=C1CCS(=O)(=O)N1c1ccc(S(=O)(=O)Nc2ccc(N3CCCC3)cc2)cc1 | i | 0.35
COc1ccc(-c2csc(-c3cc4c([nH]c3=O)CC(c3ccc(OC)cc3)CC4=O)n2)cc1 (stereo unspecified) | i | -0.37
CN1CCN(c2ccc(NC(=O)c3ccccc3Cl)c(C(=O)O)c2)CC1 | i | 0.79
Cc1ccc(C(=O)N2CCC(c3nc4c(nnn4Cc4ccccc4C)c(=O)[nH]3)CC2)cc1 | i | -0.87
CC1(C)C(=O)N(CC(=O)Nc2ccc(F)c(Cl)c2)c2ccccc21 | i | 0.24
O=C(NC1CCCCC1)c1cccc(Oc2cc(-c3ccc(F)cc3)ncn2)c1 | i | 0.52
CCOc1ccc(C2Nc3ccc(C)cc3[C@H]3OCCC[C@@H]23)cc1OC (stereo partly specified) | i | -0.24
OC(CNCc1ccc(-c2ccc(Cl)cc2Cl)o1)c1ccccc1 (stereo unspecified) | i | -4.88
CCOc1ccc(S(=O)(=O)Nc2ccc3c(c2)n(C)c(=O)n3C)cc1OCC | i | -0.71
CC1(C)CC(=O)C2=C(C1)Nc1onc(C(C)(C)C)c1C2c1ccc(O)cc1 (stereo unspecified) | i | 0.15
Cc1ccc(NC(=O)C(C)n2nc(-c3ccc(C)c(S(N)(=O)=O)c3)c3c(c2=O)CCCC3)cc1 (stereo unspecified) | i | 1.02
CCOCCCNC(=O)CCc1ccc(-n2cnc3cccnc32)cc1 | i | -0.52
CCCNC(=O)c1ccc(Cn2nc(-n3cccc3)c3c(C)cc(C)nc32)cc1 | i | 0.51
CC(C)c1ccc(NC(=O)CSc2nc3c(=O)[nH]cnc3n2C)cc1 | i | -0.78
COc1cccc(-n2c(=O)c3ccccc3c3ccccc3c2=O)c1 | i | -0.14
CCn1nnc2cc(-c3noc(C4CCC4)n3)ccc21 | i | -0.91
Cc1[nH]c(C)c(S(=O)(=O)NC2CC2)c1-c1nc(C2CC2)no1 | i | 0.64
COc1ccc(C2CC(=O)Nc3c2c(C)nn3-c2ccc3nnc(C)n3n2)cc1O (stereo unspecified) | i | 0.53
CCOC(=O)c1cnc(SC(CC)C(=O)Nc2ccc3c(c2)OCO3)nc1N (stereo unspecified) | i | 0.46
COc1ccc(-c2noc(-c3cn(Cc4ccc(NC(=O)CC(C)C)cc4)cn3)n2)cc1OC | i | -0.06
CN1CCN(C(=O)Nc2ccccc2)c2ccccc21 | i | 0.84
Cc1ccc2ccc3cc(C(=O)Nc4ccc(C)c(F)c4)nc3c2[nH]1 | i | -0.29
CCNC(=O)N1CCc2cc(S(=O)(=O)Nc3ccc(OC)cc3)ccc21 | i | 1.81
COc1ccc(-c2nn3c(=O)cc(CNC(=O)Nc4cc(OC)cc(OC)c4)nc3s2)cc1 | i | 0.53
Cc1ccccc1CN1C(=O)c2ccccc2S(=O)c2ccc(C(=O)NCCC(C)C)cc21 (stereo unspecified) | i | -0.62
Cc1ccc(NCc2nc3nc(C)cc(C)n3n2)cc1 | i | 0.3
Cc1c(C(=O)N2CCC(N3CCCCC3)CC2)sc2ncnc(N3CCN(C)CC3)c12 | i | 0.6
CCCCc1ccc(NC(=O)Cc2csc(COc3cccc(C)c3)n2)cc1 | i | 0.07
CC(Sc1nnc2c3ccccc3nc(-c3ccccc3)n12)C(=O)NCC1CCCO1 (stereo unspecified) | i | 0.49
CCC(C)n1nnc2cc(S(=O)(=O)N(C)CC(=O)NCCc3c[nH]c4ccccc34)ccc21 (stereo unspecified) | i | 1.48
COCc1nnc(C(=O)Nc2cccc(C(=O)NCCc3c[nH]c4ccc(OC)cc34)c2)s1 | i | 1.07
CCCc1cc(C(=O)N2CCCC2c2cc(C)on2)no1 (stereo unspecified) | i | -0.7
CC(=O)Nc1ccc(C(=O)N2CC(C)CC(C)C2)o1 (stereo unspecified) | i | -2.24
COc1cc([C@@H]2c3cc4c(cc3[C@@H](O[C@@H]3O[C@@H]5CO[C@@H](C)O[C@H]5[C@H](O)[C@H]3O)[C@H]3COC(=O)[C@H]23)OCO4)cc(OC)c1O | i | 0.69&0.25
CN(C)c1nc(N(C)C)nc(N(C)C)n1 | i | 0.99&0.53&-0.01
CCOC(=O)c1[nH]c(C)c(CN(Cc2ccc(C)cc2)C(=O)c2ccc3c(c2)OCO3)c1C | i | 0.42
COc1ccc(-c2cc3c(SCC(=O)NC4CCCCC4)nccn3n2)cc1 | i | 0.2
O=C1COc2ccc(S(=O)(=O)N3CCCC3C(=O)Nc3cccc(Cl)c3)cc2N1 (stereo unspecified) | i | 0.02
Cc1noc(C)c1C1CCCN1C(=O)NC(C)C (stereo unspecified) | i | 0.13
C#CCn1c(C2CC(=O)N(C)C2)nc2ccccc21 (stereo unspecified) | i | 0.21
c1ccc(CN(CCN(Cc2ccccn2)Cc2ccccn2)Cc2ccccn2)nc1 | i | -1.78
Cn1nc(C(=O)NCCCN2CCN(c3ccccc3F)CC2)cc1C(F)(F)F | i | -0.15
COc1ccc(OC)c(S(=O)(=O)Nc2ccc(Oc3nc4ccccc4n4cnnc34)cc2)c1 | i | 0.24
COc1cccc(NS(=O)(=O)c2cc(-c3nc(-c4ccc(Cl)cc4)no3)cs2)c1 | i | -0.45
Cc1nc2cc(-c3noc(-c4sc(C)nc4C)n3)ccc2o1 | i | 0.03
CCCc1ccc(S(=O)(=O)N2CCc3c(c(-c4nc(-c5ccccc5)no4)nn3C)C2)cc1 | i | 0.21
O=C(Nc1cnn(-c2ncncc2N2CCOCC2)c1)c1cc2c(s1)CCCC2 | i | 0.21
Cc1cccn2c(=O)c(C(=O)NCCN3CCCC3)cnc12 | i | -1.13
CC1Cc2cc(S(=O)(=O)N(C)CC(=O)N3CC=C(c4ccccc4)CC3)ccc2N1C(=O)C1CC1 (stereo unspecified) | i | 1.03
Cc1cc(C2CCCN2C(=O)c2ccc(F)cc2)no1 (stereo unspecified) | i | -0.43
Cn1c(=O)c(=O)n(C)c2cc(S(=O)(=O)c3ccc(F)cc3)c(N)cc21 | i | 0.61
O=c1c(S(=O)(=O)c2ccc(F)c(Cl)c2)c[nH]c2cc(F)ccc12 | i | 1.46
CCCCC(=O)N1CCCCC1CCN1CCOCC1 (stereo unspecified) | i | -0.2
COc1ccc(CNC(=O)Cn2c(=O)c(C)nc3ccccc32)cc1 | i | -0.62
O=C(O)CCC/C=C\C[C@@H]1[C@@H](/C=C/[C@@H](O)COc2cccc(C(F)(F)F)c2)[C@H](O)C[C@@H]1O | +! | -3*!
CC1CCN(C(=O)COc2ccccc2-c2nc(-c3ccccc3)no2)CC1 | i | 0.3
Cc1ccn2cc(-c3ccc(NC(=O)c4cc(Br)ccc4Cl)cc3)nc2n1 | i | 1.27
Cc1c(C(=O)Nc2sc3c(c2C(=O)NCC2CCCO2)CCC3)oc2ccccc12 (stereo unspecified) | i | -1.24
Remaining list, next part:
SMILES | Anaer choline gr | Anaer choline gr early
Cc1cccc(N2CCN(C(=O)c3cnc4sc(C)c(C)n4c3=O)CC2)c1C | i | -0.57
CC1CCN(S(=O)(=O)c2ccc3c(c2)CCC(=O)N3CC(=O)NCc2ccccn2)CC1 | i | 0.14
COc1ccc(OC)c(NC(=O)c2ccc(C3Nc4ccccc4S(=O)(=O)N3)cc2)c1 (stereo unspecified) | i | -0.05
COc1ccc(OC)c(NC(=O)N2CCCN(c3nc4cc(Br)ccc4n4cccc34)CC2)c1 | i | -0.41
CC(C)n1cnc2nc(COc3ccccc3NC(=O)Nc3cc(F)ccc3F)cc(=O)n21 | i | 4.97
COc1ccc(CNC(=O)CSc2cc(N3CCCCC3)ncn2)cc1 | i | 0.18
CCOC(=O)c1cc(S(=O)(=O)N2CCN(c3ncccn3)CC2)[nH]n1 | i | -0.97
Cc1ccc(-n2nc(CO)c(C(=O)NCc3ccncc3)n2)cc1 | i | 0.75
COc1ccc2ncc3c(-c4ccc(C)cc4)n[nH]c3c2c1 | i | -0.1
CN1C(=O)c2cc3ccccc3n2CC1(C)C(=O)NCC(=O)NCc1ccc2c(c1)OCO2 (stereo unspecified) | i | 0.9
O=C(c1cc2n(n1)CCCN(Cc1cccc(F)c1)C2=O)N1CCC(N2CCCCC2)CC1 | i | -0.1
O=C(Nc1ccccc1Br)c1nc(Nc2ccccc2)c2ccccc2n1 | i | 1.67
Cc1cc(-n2c(C)nc3ccccc3c2=O)ccc1NC(=O)Cc1ccccc1F | i | 0.27
O=C(Nc1cccc(Cl)c1)C1CCCN(c2nc3cccnc3n(Cc3ccccc3)c2=O)C1 (stereo unspecified) | i | -0.32
CN(c1ccc2c(c1)OCO2)S(=O)(=O)c1ccsc1-c1nc(-c2ccc(Cl)cc2)no1 | i | 2.41
O=C(CCc1ccccc1)N1CCN(Cc2cc(=O)n3nc(-c4ccccc4F)sc3n2)CC1 | i | 0.21
Cc1ccc2cc3c(nc2c1)N(S(=O)(=O)c1ccccc1)CC3 | i | -0.87
CNCCNS(=O)(=O)c1cccc2cnccc12 | i | -0.01
COc1ccc(C(=O)N2CCC(N3CCN(Cc4ccccc4)C3=O)CC2)cc1OC | i | 0.38
CCOC(=O)c1nn(-c2ccccc2C)c(=O)cc1NCCC(c1ccccc1)c1ccccc1 | i | 1.31
Cc1ccc2ccc3cc(C(=O)N4CCN(C)CC4)nc3c2[nH]1 | i | -2.76
C=Cc1ccc(Cn2nc3n(Cc4ccc(F)cc4)c(=O)c4ccccc4n3c2=O)cc1 | i | -0.14
COCc1nnc(NC(=O)c2ccccc2OCc2nc(-c3ccc(C)cc3)no2)s1 | i | 0.68
O=C(NCCn1c(CCc2ccccc2)nc2cccnc21)c1ccc2c(c1)OCO2 | i | -0.7
COc1cccc(C(=O)N2CCC(N3CCN(Cc4ccc(F)cc4)C(=O)C3=O)CC2)c1 | i | -0.67
Cn1c(=O)c2ccc(C(=O)NC3CCCC3)cc2n2c(SCC(=O)c3ccccc3)nnc12 | i | -0.97

Screening results (PubChem)
